High-throughput results: PubChem BioAssay, several laboratories
CSC inhib = cancer stem cell viability inhibitors, primary screen, luminescence; cancer stem cell-like cells viability; 1.1% of 300,000 active; inhibition, % at 7.5 µM; AID 2717, 2010;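 active means mean at 75% or more and at least half the replicates too; tested in HMLE shEcad cells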;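 further: 0% = median of negative and 100% = median of positive control wells; the first replicate is given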
HIV Env fusion = inhibitors of HIV-1 Env-driven cell-cell fusion, primary screen, HeLa-JRFL effector, CEM21 target cells, luciferase; inhibition, % at 12.3 µM; 1.1% of 360,000 active;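 active means mean replicate inhibition score of at least 50 and every replicate individually at or above 50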;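 further: 0% = plate neutral controls and 100% = maraviroc near 300 nM; one replicate is shown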
MT1-MMP act inh = blockers of MT1-MMP proenzyme processing, primary screen, HT1080 RFP-PRO-GFP cells, GFP/RFP fluorescence | Matrix metalloproteinase-14 (Homo sapiens), P50281 | GFP/RFP ratio fluorescence, overnight; percent of plate control window, DMSO zero | GFP/RFP ratio change, % at 20 µM | 0.061% of 360,000 active;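 active means GFP/RFP ratio change of at least 30% with cell ATP level not reduced by more than half and red fluorescence within 50% of control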; further: strong numbers were not always called active
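Compound: 20 µM single dose, 1% DMSO / System: HT1080 RFP-PRO-GFP cells / Controls: DMSO and RFP-L50D-GFP cell wells / Read-out basis: GFP/RFP fluorescence ratio / Schedule: overnight compound exposure at 37 °C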
eIF4H FP inh = human eIF4H binding inhibitors, primary screen, translation initiation inhibitor project, biochemical, uHTS, fluorescence polarization; Eukaryotic translation initiation factor 4H (Homo sapiens), Q15056; eIF4H fluorescence polarization binding assay; inhibition, % at 35 µM; 0.94% of 290,000 active;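 active means 50% or more with normal probe brightness, or confirmed in later tests; about a fifth of its hits are not listed in these tables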;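 further: calls also rest on retests at 20 µM and on dose response follow-up; 0% = protein and probe with vehicle and 100% = probe without protein; strong numbers were not always called active; many hits fall short of the cut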
UUG fidelity = modulators of yeast start codon fidelity, primary screen, whole organism, S. cerevisiae, single point, plate reader | activity score, % at 18.7 µM | S. cerevisiae UUG-firefly luciferase reporter, luminescence/redox ratio | 0.13% of 350,000 active | AID 602363, 2012;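 active means replicate mean at a twofold rise or more, about +100% in these data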;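 further: firefly luciferase made from a UUG start codon reports start codon fidelity; reporter light over untreated wells divided by growth signal over untreated wells; some hits fall short of that in this replicate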
Rce1 inhib = yeast Rce1p protease inhibitors, primary screen, biochemical, fluorescence, cell-free homogeneous; yeast membranes, quenched prenylated peptide cleavage fluorescence; calls only; 0.27% of 290,000 active; AID 2563, 2010;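 active means fall in fluorescence gain of 50% or more versus controls, with final raw signal at or below 3038400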;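 further: plate controls were neutral control wells for no effect and wells lacking membranes for full effect; tested at 10 µM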
PABP FP inh = PABP poly(A) RNA binding inhibitors, primary screen, biochemical, fluorescence polarization, uHTS | Polyadenylate-binding protein 1 (Homo sapiens), P11940 | AID 2014, 2009 | 1% of 290,000 active | inhibition, % at 35 µM;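 active means 50% or more with normal probe brightness, or confirmed in later tests; about a fifth of its hits are not listed in these tables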;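 further: calls also rest on retests at 20 µM and on dose response follow-up; controls were probe without protein and protein plus probe with vehicle; some compounds called inactive have numbers as strong as hits; many hits fall short of the cut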
Target sequence (P11940 whole entry, looked up): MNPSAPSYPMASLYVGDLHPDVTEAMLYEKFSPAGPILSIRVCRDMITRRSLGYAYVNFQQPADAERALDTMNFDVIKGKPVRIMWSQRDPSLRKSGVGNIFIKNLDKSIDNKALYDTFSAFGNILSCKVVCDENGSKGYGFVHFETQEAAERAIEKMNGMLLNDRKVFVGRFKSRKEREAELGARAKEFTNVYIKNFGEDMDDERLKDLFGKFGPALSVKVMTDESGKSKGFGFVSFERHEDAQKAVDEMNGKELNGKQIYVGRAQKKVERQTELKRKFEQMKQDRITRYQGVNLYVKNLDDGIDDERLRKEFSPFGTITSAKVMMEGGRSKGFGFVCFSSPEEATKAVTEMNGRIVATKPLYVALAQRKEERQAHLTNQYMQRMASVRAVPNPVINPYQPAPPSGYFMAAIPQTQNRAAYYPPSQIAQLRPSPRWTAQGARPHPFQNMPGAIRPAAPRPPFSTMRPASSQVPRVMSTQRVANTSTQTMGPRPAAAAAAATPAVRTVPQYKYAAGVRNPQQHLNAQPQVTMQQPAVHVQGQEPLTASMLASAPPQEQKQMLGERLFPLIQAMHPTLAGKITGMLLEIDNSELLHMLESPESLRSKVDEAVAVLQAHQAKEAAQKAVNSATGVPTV
MT1-MMP act inh RFP = also measured in MT1-MMP act inh; calls as there; RFP signal change, %; measured here: RFP expression control read;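 0 = vehicle wells; hits needed this value within 50% of zero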
* hit, by the source's call; & = joins results of further samples.

Results for Cc1nn(-c2ccccc2)c2c1c(C)c(CCC(=O)NCC1CCCO1)c(=O)n2C (stereo not given) ?
HIV Env fusion: 16; MT1-MMP act inh: -3; eIF4H FP inh: -8; Rce1 inhib: inactive; PABP FP inh: 5; MT1-MMP act inh RFP: -8

What do the screens show for `O=C(CN1C(=O)c2ccccc2S1(=O)=O)Nc1ccc(S(=O)(=O)N2CCCC2)cc1`?
CSC inhib: 2; HIV Env fusion: 12; MT1-MMP act inh: 3; eIF4H FP inh: -1; UUG fidelity: -7; Rce1 inhib: inactive; PABP FP inh: 7; MT1-MMP act inh RFP: -1

Results for CC(C)C(=O)NC(c1ccco1)c1ccc2cccnc2c1O (stereo not given) ?
CSC inhib: -7; MT1-MMP act inh: 1; eIF4H FP inh: 16; UUG fidelity: -19; Rce1 inhib: inactive; PABP FP inh: -3; MT1-MMP act inh RFP: -7

Results for CC(=O)Nc1ccc(S(=O)(=O)NCc2cc(=O)n(C)c(=O)n2C)cc1 ?
CSC inhib: -5; HIV Env fusion: 0; MT1-MMP act inh: -2; eIF4H FP inh: -12; UUG fidelity: 0; Rce1 inhib: inactive; PABP FP inh: -8; MT1-MMP act inh RFP: -1

Results for CCc1nc2ccccc2c(C(=O)Nc2cccc(C)c2)c1C ?
CSC inhib: -15; HIV Env fusion: -8; MT1-MMP act inh: -1; eIF4H FP inh: 2; UUG fidelity: -4; Rce1 inhib: inactive; PABP FP inh: 5; MT1-MMP act inh RFP: 4

Results for COC(=O)/C=C1/S/C(=N/NC(=O)c2ccccc2OC)NC1=O ?
CSC inhib: -2; HIV Env fusion: 1; MT1-MMP act inh: -3; eIF4H FP inh: -4; UUG fidelity: -24; Rce1 inhib: inactive; PABP FP inh: 13; MT1-MMP act inh RFP: 0

Results for CCO[C@H]1OC(C(=O)N2CCN(Cc3ccccc3)CC2)=C[C@@H](c2cn(C(C)=O)c3ccccc23)[C@@H]1CCCO ?
CSC inhib: -1; HIV Env fusion: 8; MT1-MMP act inh: 2; eIF4H FP inh: -3; UUG fidelity: 16; Rce1 inhib: inactive; PABP FP inh: -7; MT1-MMP act inh RFP: -5

What do the screens show for `Cn1c(=O)c2c(-c3ccccc3)n(-c3cc([N+](=O)[O-])ccc3N)cc2n(C)c1=O`?
HIV Env fusion: -6; MT1-MMP act inh: -2; UUG fidelity: -1; MT1-MMP act inh RFP: -2

How did COc1ccc(N=C(NN)c2ccc3ccccc3n2)cc1 do in these assays?
CSC inhib: 12; HIV Env fusion: 25; MT1-MMP act inh: -4; eIF4H FP inh: 2; UUG fidelity: -91; Rce1 inhib: inactive; PABP FP inh: -3; MT1-MMP act inh RFP: 0

What do the screens show for `O=C(NC(=S)Nc1ccccn1)c1cc(-c2ccccc2)nc2ccccc12`?
CSC inhib: 16; HIV Env fusion: -93; MT1-MMP act inh: 1; eIF4H FP inh: 6; UUG fidelity: -6; Rce1 inhib: inactive; PABP FP inh: 8; MT1-MMP act inh RFP: -8

Continued, overlapping the part above by 3 compounds.
What do the screens show for `Cn1c(=O)c2c(-c3ccccc3)n(-c3cc([N+](=O)[O-])ccc3N)cc2n(C)c1=O`?
HIV Env fusion: -6; MT1-MMP act inh: -2; UUG fidelity: -1; MT1-MMP act inh RFP: -2

How did COc1ccc(N=C(NN)c2ccc3ccccc3n2)cc1 do in these assays?
CSC inhib: 12; HIV Env fusion: 25; MT1-MMP act inh: -4; eIF4H FP inh: 2; UUG fidelity: -91; Rce1 inhib: inactive; PABP FP inh: -3; MT1-MMP act inh RFP: 0

What do the screens show for `O=C(NC(=S)Nc1ccccn1)c1cc(-c2ccccc2)nc2ccccc12`?
CSC inhib: 16; HIV Env fusion: -93; MT1-MMP act inh: 1; eIF4H FP inh: 6; UUG fidelity: -6; Rce1 inhib: inactive; PABP FP inh: 8; MT1-MMP act inh RFP: -8

Results for Cc1ccc(C(=O)c2oc3ccccc3c2NC(=O)c2cc(-c3ccccc3O)n[nH]2)cc1 ?
CSC inhib: -5; HIV Env fusion: -24; MT1-MMP act inh: 1; eIF4H FP inh: 0; Rce1 inhib: inactive; PABP FP inh: -5; MT1-MMP act inh RFP: -2

Results for CN1CCc2c(c3c(n2C)CCN(C)C3c2ccc(F)cc2)C1c1ccc(F)cc1 (stereo not given) ?
CSC inhib: -7; HIV Env fusion: -40; MT1-MMP act inh: -3; eIF4H FP inh: 18; UUG fidelity: 3; Rce1 inhib: inactive; PABP FP inh: 22; MT1-MMP act inh RFP: 7

What do the screens show for `O=S(=O)(Nc1ncn[nH]1)c1ccc2ccccc2c1`?
CSC inhib: 3; MT1-MMP act inh: 2; eIF4H FP inh: -7; UUG fidelity: 1; Rce1 inhib: inactive; PABP FP inh: -2; MT1-MMP act inh RFP: 0

What do the screens show for `CCOC(=O)Cn1c(=NC(=O)CSC(C)=O)sc2cc(OC)ccc21`?
CSC inhib: 0; MT1-MMP act inh: 7; eIF4H FP inh: 0; UUG fidelity: -16; Rce1 inhib: inactive; PABP FP inh: -5; MT1-MMP act inh RFP: 6

How did Cc1cc(C)c(NC2=NCC(=O)N2C2CCCCC2)c(C)c1 do in these assays?
CSC inhib: -8; HIV Env fusion: 8; MT1-MMP act inh: -4; eIF4H FP inh: -9; UUG fidelity: -3; Rce1 inhib: inactive; PABP FP inh: -2; MT1-MMP act inh RFP: -2

What do the screens show for `O=C1NC(=O)C(Nc2cccc3ccccc23)S1` (stereo not given)?
CSC inhib: -2; MT1-MMP act inh: 4; eIF4H FP inh: 18; UUG fidelity: 21; Rce1 inhib: inactive; PABP FP inh: 8; MT1-MMP act inh RFP: 7

How did CCOC(=O)c1c(NC(=O)CN2CCN(c3ccc(Cl)cc3)CC2)sc(C)c1C do in these assays?
CSC inhib: 10; MT1-MMP act inh: -2; eIF4H FP inh: 9; UUG fidelity: -10; Rce1 inhib: inactive; PABP FP inh: 2; MT1-MMP act inh RFP: -3

How did CCOC(=O)N1CCN(C(=O)c2ccc3c(=O)n(-c4ccccc4F)c(=S)[nH]c3c2)CC1 do in these assays?
CSC inhib: -14; HIV Env fusion: -4; MT1-MMP act inh: 0; eIF4H FP inh: 10; UUG fidelity: -14; Rce1 inhib: inactive; PABP FP inh: -13; MT1-MMP act inh RFP: -4

What do the screens show for `O=C(CSCc1ccccc1F)NCc1ccc(F)cc1`?
CSC inhib: 1; HIV Env fusion: 1; MT1-MMP act inh: 4; eIF4H FP inh: -3; UUG fidelity: 3; Rce1 inhib: inactive; PABP FP inh: -6; MT1-MMP act inh RFP: -1

What do the screens show for `CN(C(=O)c1ccncc1)c1nnc(-c2ccccn2)s1`?
CSC inhib: 0; HIV Env fusion: -59; MT1-MMP act inh: 0; eIF4H FP inh: 16; UUG fidelity: -10; Rce1 inhib: inactive; PABP FP inh: -5; MT1-MMP act inh RFP: 3

How did Nc1nc(NC(=O)CCC(=O)O)nn1-c1ccccc1 do in these assays?
CSC inhib: -1; HIV Env fusion: 7; MT1-MMP act inh: 1; eIF4H FP inh: -6; UUG fidelity: -17; Rce1 inhib: inactive; PABP FP inh: 4; MT1-MMP act inh RFP: 2

What do the screens show for `O=C(OCCc1ccccn1)c1cccc([N+](=O)[O-])c1`?
HIV Env fusion: -7; MT1-MMP act inh: 4; UUG fidelity: 0; MT1-MMP act inh RFP: 4

Results for CCCCCC(=O)Nc1cccc(S(=O)(=O)NC2=NCCC2)c1 ?
HIV Env fusion: 0; MT1-MMP act inh: 3; UUG fidelity: 4; MT1-MMP act inh RFP: 3

How did Cc1ccc(-c2nn(C)c(=O)c3ccccc23)cc1S(=O)(=O)NCCN(C)C do in these assays?
CSC inhib: -14; HIV Env fusion: -9; MT1-MMP act inh: -1; eIF4H FP inh: 3; Rce1 inhib: inactive; PABP FP inh: 0; MT1-MMP act inh RFP: -2

What do the screens show for `CCc1ccc(N2CCN(C(=O)c3ccc(OC)c(OC)c3)CC2)cc1`?
CSC inhib: -2; HIV Env fusion: 51; MT1-MMP act inh: 8; eIF4H FP inh: 7; UUG fidelity: -4; Rce1 inhib: inactive; PABP FP inh: -10; MT1-MMP act inh RFP: -26

Results for Cc1ccc(S(C)(=O)=O)cc1S(=O)(=O)Nc1ccccc1 ?
CSC inhib: -28; HIV Env fusion: 21; MT1-MMP act inh: 0; eIF4H FP inh: -8; Rce1 inhib: inactive; PABP FP inh: -16; MT1-MMP act inh RFP: 6

Results for CCc1ccccc1NC(=O)CSc1nnc(-c2ccco2)n1N ?
CSC inhib: 11; HIV Env fusion: -127; MT1-MMP act inh: 4; eIF4H FP inh: 3; UUG fidelity: -26; Rce1 inhib: inactive; PABP FP inh: -4; MT1-MMP act inh RFP: 5

What do the screens show for `CCOc1cc(/C=N/NC(=O)c2cccs2)ccc1OC(=O)N1CCOCC1`?
CSC inhib: -6; HIV Env fusion: -51; MT1-MMP act inh: 5; eIF4H FP inh: -1; Rce1 inhib: inactive; PABP FP inh: 18; MT1-MMP act inh RFP: 1

What do the screens show for `CCCN1CCN(C(=O)c2cc(COc3ccc(F)c(F)c3)on2)CC1`?
CSC inhib: 0; HIV Env fusion: -5; MT1-MMP act inh: 2; eIF4H FP inh: 4; UUG fidelity: -15; Rce1 inhib: inactive; PABP FP inh: 9; MT1-MMP act inh RFP: 4

Results for CCC(C)c1ccc(-n2c(=O)c3ccccc3n3c(=S)[nH]nc23)cc1 (stereo not given) ?
CSC inhib: -14; HIV Env fusion: -1; MT1-MMP act inh: 3; eIF4H FP inh: 0; UUG fidelity: -14; Rce1 inhib: inactive; PABP FP inh: 3; MT1-MMP act inh RFP: 0

What do the screens show for `Cc1c(Cl)c(C(F)(F)F)nn1CC(=O)NN`?
CSC inhib: -8; HIV Env fusion: 3; MT1-MMP act inh: 7; eIF4H FP inh: 0; Rce1 inhib: inactive; PABP FP inh: 4; MT1-MMP act inh RFP: 7

How did Cc1ccc(N(C)C(=O)C2CCCN2S(=O)(=O)c2ccc3c(c2)n(C)c(=O)c(=O)n3C)cc1 (stereo not given) do in these assays?
CSC inhib: -3; HIV Env fusion: 9; MT1-MMP act inh: 0; eIF4H FP inh: 2; UUG fidelity: 1; Rce1 inhib: inactive; PABP FP inh: -1; MT1-MMP act inh RFP: 0

Results for O=C(Nc1cnn(Cc2c(Cl)cccc2Cl)c1)C(c1ccccc1)c1ccccc1 ?
CSC inhib: 18; MT1-MMP act inh: -5; eIF4H FP inh: -6; UUG fidelity: -7; Rce1 inhib: inactive; PABP FP inh: -1; MT1-MMP act inh RFP: -10

How did C[C@H](CO)N1C[C@H](C)[C@H](CN(C)C(=O)c2ccccc2)OCc2cnnn2CCCC1=O do in these assays?
HIV Env fusion: 3; MT1-MMP act inh: -1; UUG fidelity: -6&-1&-5; MT1-MMP act inh RFP: -1

How did O=C(CSc1ccccn1)N1CCCC(Nc2ccc(F)c(F)c2)C1 (stereo not given) do in these assays?
CSC inhib: 13; HIV Env fusion: 23; MT1-MMP act inh: -5; eIF4H FP inh: 4; UUG fidelity: -2; Rce1 inhib: inactive; PABP FP inh: 12; MT1-MMP act inh RFP: -1
